Compound activity deposited in PubChem BioAssay by ICCB-Longwood Screening Facility, Harvard Medical School.
Vaccinia pol inh: inhibitors of vaccinia virus processive DNA synthesis (E9 polymerase) | 46,000 tested, 0.94% active | normalized absorbance, % (no concentration beside the values) | in vitro processive DNA synthesis, absorbance read-out; hits give low values; some inactives read as strong as hits;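 active = replicate mean up to 90% and picked by the depositor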;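 note: 100% = median of the test wells of a plate; 100 nL library stock went into each well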
An asterisk follows results filed as active.

molecule	Vaccinia pol inh
FC(F)(F)c1ccc(Oc2ccc(Oc3ccc(C(F)(F)F)cn3)cc2)nc1	102
Cc1ccc2oc(=O)c3cnn(CC(=O)N(C)Cc4ccccc4)c3c2c1	104
COc1ccc(CCCOC(Cn2ccnc2)c2ccc(OC)cc2)cc1 (stereo not drawn)	97
CCOC(=O)c1cnc2c(S(=O)(=O)C(C)C)csc2c1Sc1ccc(Cl)cc1	86
CCN(Cc1ccccc1)C(=O)Cn1cc2c(n1)CCCCCC2	91
Cc1cc(OCC(O)CN2CCCCC2C)cc(C)c1Cl (stereo not drawn)	101
Cc1ccc(C(=O)Cn2cncn2)cc1	104
CCc1ccc(N2COc3ccc4cc(C(=O)OC)c(=O)oc4c3C2)cc1	92
COC(=O)c1c(-c2ccc(OC)c(OC)c2)csc1NC(=O)C1CC1c1ccccc1 (stereo not drawn)	100
Brc1ccc(-c2ccc(Br)s2)s1	75
CC(=O)N/C(=C\c1ccccc1)C(=O)NCC1CCCO1 (stereo not drawn)	99
Cc1[nH]c(=O)[nH]c(=O)c1S(=O)(=O)N1CCCc2ccccc21	103
O=C(CSCc1ccco1)Nc1cc(C(F)(F)F)ccc1Cl	101
Cc1sc[n+](CC(=O)c2ccc(Br)cc2)c1C	100
O=C(COc1ccccc1)OCc1ccccc1F	99
CC1CCCC(NC(=O)Cn2c(-c3cccs3)cc3ccccc32)C1C (stereo not drawn)	112
Cc1nc2c([nH]1)C(c1ccc(C(C)C)cc1)C(C#N)=C(C#N)O2 (stereo not drawn)	101
NC(=O)c1sc2c(c1N)C(c1ccc(Cl)cc1)C1=C(N2)c2ccccc2C1=O (stereo not drawn)	100
CCOc1ccccc1NC(=O)c1cc(=O)c2ccccc2o1	96
CSCCC(C(=O)O)N1C(=O)CSC1=S (stereo not drawn)	88
CC(=O)n1c(/C=C2\C=c3cccc(C)c3=NC2=O)c(O)[nH]c1=S	99
O=C(COc1ccc2ccc(=O)oc2c1)NC1CCCC1	105
CC(C)n1c(SCC(=O)C(C)(C)C)nc2cc(C(F)(F)F)ccc21	99
Cc1cc(=O)n(CNC(=O)c2ccco2)cn1	100
C=CCN1C(=O)c2oc3ccccc3c(=O)c2C1c1ccc(OC)cc1 (stereo not drawn)	106
O=c1oc2ccc(Br)cc2cc1-c1nnc(-c2ccncc2)o1	102
CCN(CC)S(=O)(=O)c1ccc(C(=O)Nc2nc(-c3ccccc3)cs2)cc1	97
CC(C)N1CCc2c(sc(N)c2C(N)=O)C1	100
COc1ccc(/C=C/C(=O)Nc2ccc(Cl)cn2)cc1OC	98
Cc1csc2c(N3CCN(C(=O)NC(C)(C)C)CC3)ncnc12	60*
O=C(COC(=O)c1cccnc1Cl)NCc1ccc(Cl)cc1	102
CCC1C(=O)C2=C(CC(C)(C)CC2=O)N(c2ccc(OC)cc2)C1c1ccccc1 (stereo not drawn)	100
CCn1c(C(=O)NCCCc2ccccc2)cc2oc3ccccc3c21	86
COc1cccc(-n2ccnc2SCC(=O)Nc2nccs2)c1	101
Cc1nnc(SCC(=O)O)n1/N=C/c1ccccc1	104
COc1cc(-c2nc(Nc3ccc(C)c(F)c3)c3ccccc3n2)cc(OC)c1OC	100
C(=NCc1ccc2c(c1)OCO2)c1cccnc1	100
O=C(OCC1CCCO1)c1ccccc1C(F)(F)F (stereo not drawn)	104
O=C(O)CCC(=O)Nc1ccccn1	99
Cc1ccc2cc(NC(=O)C3CC(=O)N(CCc4ccc(Cl)cc4)C3)ccc2n1 (stereo not drawn)	96

Four entries from above, set out differently:
CCC1C(=O)C2=C(CC(C)(C)CC2=O)N(c2ccc(OC)cc2)C1c1ccccc1 (stereo not drawn)
  Vaccinia pol inh: 100

Cc1nnc(SCC(=O)O)n1/N=C/c1ccccc1
  Vaccinia pol inh: 104

O=C(COC(=O)c1cccnc1Cl)NCc1ccc(Cl)cc1
  Vaccinia pol inh: 102

COc1cccc(-n2ccnc2SCC(=O)Nc2nccs2)c1
  Vaccinia pol inh: 101

Further compounds.
molecule	Vaccinia pol inh
COC(=O)c1c(=O)n(O)c2cc(Cl)c(Cl)cc2[n+]1[O-]	100
CCCCC(=O)C1CCC(c2ccc(Cl)cc2)CC1 (stereo not drawn)	103
CC(=O)Oc1ccc(-c2nc3ccccc3c(=O)o2)cc1	100
COc1ccc(-c2nc(SCc3ccccc3C#N)[nH]c(=O)c2C#N)cc1	100
CN(Cc1ccccc1)C(=O)c1cccn2c(=O)c3c4c(sc3nc12)CCCC4	103
N=c1n(CCO)c2ccccc2n1CCOc1ccc(Cl)cc1Cl	98
O=S(CCSc1nc2ccccc2s1)Cc1ccccc1 (stereo not drawn)	98
Cc1cc(C)nc(NC2=NCCN2C(=O)Nc2ccc(Cl)c(Cl)c2)n1	100
CCCCC[C@H](O)CC[C@H]1[C@H](O)CC(=O)[C@@H]1CCCCCCC(=O)O	100
O=C(/C=C/c1ccccc1)Nc1ncnc2sc3c(c12)CCC3	100

By substructure, the entries above with a cyano group
molecule	Vaccinia pol inh
Cc1nc2c([nH]1)C(c1ccc(C(C)C)cc1)C(C#N)=C(C#N)O2 (stereo not drawn)	101
COc1ccc(-c2nc(SCc3ccccc3C#N)[nH]c(=O)c2C#N)cc1	100

The list goes on:
molecule	Vaccinia pol inh
CC(=O)OCC(=O)c1ccc2ccn(C(C)=O)c2c1	97
O=C1CC(c2ccccc2)CC2=C1C(c1ccccc1)Nc1ccccc1N2 (stereo not drawn)	99
Cc1ccccc1S(=O)(=O)Cc1ccc(C(=O)NC(C)c2ccccc2)o1 (stereo not drawn)	100
O=c1c2c3c(sc2ncn1/N=C/c1cc(Br)ccc1O)CCCC3	92
O=C1CC(c2nc3ccccc3[nH]2)CN1c1ccc(F)cc1 (stereo not drawn)	97
CN(C(=O)c1cc(-c2ccc(Cl)c(Cl)c2)on1)c1ccccc1	98
O=C(O)C1C2C=CC(C2)C1C(=O)N1CCc2ccccc21 (stereo not drawn)	101
COc1ccc(CNC(=O)c2oc3ccccc3c2-n2cccc2)cc1	99
CC(C)(C)c1ccc2c(c1)OCCOCCOCCO2	101
NC(CCO)c1cccc(Cl)c1 (stereo not drawn)	84
NC(=O)CCS(=O)(=O)CCN1CCCCC1	98
Cc1ccc(NC(=O)/C=N/O)cc1	100
COc1ccccc1NC(=O)/C=C\c1ccco1	100
O=C(O)C1CCCCC1C(=O)Nc1ccc(C(=O)N2CCCCC2)cc1 (stereo not drawn)	96
CC(=O)Nc1ccc(NCC(=O)c2ccccc2)cc1	103
O=C(NCC1CC1)c1ccccc1NS(=O)(=O)c1cccc2nonc12	103
C=CCN(C(=O)CSc1nc2c(sc3ccccc32)c(=O)n1Cc1cccnc1)c1ccccc1	100
CC1CCN(CNC(=O)c2cc3ccccc3o2)CC1	101
O=C(COC(=O)c1ccc(N2C(=O)c3ccccc3C2=O)cc1)c1ccccc1	100
CCOc1ccc(NC2=NCCS2)cc1	107
Cc1ccc(-c2csc(COC(=O)C(C)(C)C)n2)cc1	96
C=CCNC(=S)Nc1sc2c(c1C(=O)OCC)CCCCC2	100
COc1cc(/C=C2/SC(=Nc3cccc(Cl)c3Cl)NC2=O)cc(OC)c1OC	103
CC1=C(C#N)C(=O)NC(=O)/C1=C\c1ccc(-c2ccccc2)o1	100
Clc1ccccc1CN1COc2cc3c(cc2C1)OCO3	94
O=C(COC(=O)C1(c2ccc(Cl)cc2)CCCC1)NC1CC1	88
CC(Oc1ccccc1)C(=O)NC1CCSC1=O (stereo not drawn)	100
Cc1cccc(N2C(=O)NC3CC2(C)Oc2ccccc23)c1 (stereo not drawn)	100
C=CCn1c(C(CC)CC(C)(C)O)n[nH]c1=S (stereo not drawn)	100
COC(=O)C(C)Sc1nnc(-c2ccc(Br)cc2)o1 (stereo not drawn)	100
O=C(O)c1ccccc1C(=O)Nc1ccccc1F	100
C=CCNC(=O)c1ccc(C(F)(F)F)nc1C	98
O=C(CSc1nc2ccccc2s1)N1CCN(CCO)CC1	100
COc1ccc(CN2CCN(C(=O)c3ccccc3F)CC2)cc1OC	100
CN(C(=O)CCN1C(=O)C(C)(C)Nc2ccccc21)c1ccccc1	100
NNC(=O)c1cccnc1Oc1ccccc1	94
COC(CN(C)C(=O)c1cc2c(Cl)nc3ccc(C)cc3c2s1)OC	80
O=S1(=O)CCN(CC2CCCC2)CC1	112
O=C(Nc1ccc(-c2nc3ccccc3o2)cc1)c1ccccc1Cl	99
O=C(Nc1ccc(Cc2ccncc2)cc1)C1CC1	99
Cc1ccn2cc(CCNC(=O)C3CCCCC3)nc2c1	100
COc1ccc(N(CN2C(=O)c3ccccc3C2=O)C(=O)c2ccccc2)cc1	99
CCn1c(=O)cc(OCC(=O)NCCCN2CCCC2=O)c2ccccc21	105
CN(C)/C=C/C(=O)c1ccc2c(c1)CCO2	98
O=C(Nc1ccccc1I)c1ccc(Br)o1	98
Cc1ccnc(Nc2nc3ccccc3o2)n1	104
Cc1cc(C(=O)NC(C)(C)C)on1	103
O=C(CCSc1ccc(Br)cc1)Nc1ccc(F)cc1	96
CN(C)c1ccc(/C=N/N2C(=O)CNC2=O)cc1	99
Cc1cccc(OCc2nc(C#N)c(NCCc3ccccc3)o2)c1	101

Next part:
molecule	Vaccinia pol inh
CCc1cc(C(=O)OCC(=O)Nc2ccc(C)cc2C)c2ccccc2n1	94
CCC(C)NC(=O)c1nn2c(c1Cl)NC(c1ccc(OC)cc1)CC2C(F)(F)F (stereo not drawn)	100
O=C(CN1C(=O)c2ccccc2S1(=O)=O)N1CCC(Cc2ccccc2)CC1	102
CC(C)NC(=S)N1CCN(c2ccc3nnc(-c4ccc(F)cc4)n3n2)CC1	97
O=C1Nc2ccccc2C12CC(c1ccc(F)cc1)=NC(=S)N2c1ccc(F)cc1 (stereo not drawn)	100
CC(C)(C)c1ccc(/C=C/C(=O)Nc2cccnc2)cc1	100
Cn1c(C(=O)O)cc2ccccc21	87
COc1ccc(S(=O)(=O)N(C)C2CCCCC2)cc1C	102
O=C(Cn1ccc2ccccc2c1=O)NCCC(=O)N1CCCCC1	100
Cc1nn(-c2ccccc2)c(Cl)c1C(=O)NC1CCS(=O)(=O)C1 (stereo not drawn)	107
COC(=O)c1c(NC(=O)c2ccc(OC)cc2)sc2c1CCN(C(C)C)C2	56*
CCn1c(=O)oc2cc(Br)ccc21	91
Cc1ccc(NC2OC(=O)c3ccccc32)cc1C (stereo not drawn)	102
O=C(NCc1ccc(F)cc1)C1CC(=O)N(c2ccc(F)cc2)C1 (stereo not drawn)	101
CCc1ccc(OCC(O)CNC(C)(C)C)cc1 (stereo not drawn)	97
Cc1ccc(-c2nc3ccc(N4CCCC4)cc3c(=O)[nH]2)cc1	102
COC(=O)CN1C(=O)S/C(=C/c2ccc(-c3ccc(C(=O)O)cc3)o2)C1=O	100
COc1ccc(C)cc1N(C)C(=O)c1nn(C)c2c1COc1ccccc1-2	99
O=C(OCCN1CCCC1=O)c1ccccc1	92
CCn1cc(C(=O)N(C)C2CCCCC2)c2cc(OC)c(OC)cc2c1=O	90
COCCN1Cc2cccc(C(=O)NCc3ccccn3)c2C1=O	93
Cc1cc(OCC(N)=O)c2c3c(c(=O)oc2c1)CCCC3	100
O=C(c1ccccc1NS(=O)(=O)c1ccccc1)N1CCCC1	101
COC(=O)c1ccc(Oc2ncc(C(F)(F)F)cc2Cl)cc1	99
CSc1cccc(NC(=O)CCS(=O)(=O)c2ccc3c(c2)CCN3C(C)=O)c1	103
COc1ccc(NC(=O)CN2C(=O)c3ccccc3C2=O)cc1	100
CC(C)CN1CN(Cc2ccco2)CNC1=S	100
Nc1nc(CSc2n[nH]c(-c3ccccc3)n2)nc(Nc2ccccc2)n1	100
CCCCS(=O)c1nc(-c2ccc(C)cc2)cc(-c2ccccc2)c1C#N (stereo not drawn)	100
CC(=O)Nc1nc(C)c(Oc2ccccc2)c(OC(=O)N(C)C)n1	100
CN(C)Cc1c(O)ccc2c(-c3ccccc3)cc(=O)oc12	97
CCOc1cccc2c1OC1(C)C(C(=O)Nc3ccc(OC)cc3)C2NC(=S)N1CCOC (stereo not drawn)	102
CC1CCCC(NC(=O)COC(=O)Cc2ccsc2)C1C (stereo not drawn)	99
CN1c2ccccc2N(C)C1c1ccccc1	100
CCn1c(C2CC(=O)N(Cc3ccccc3)C2)nc2ccccc21 (stereo not drawn)	100
CCCN(CCC)S(=O)(=O)c1ccc(Br)cc1	105
COc1ccc2c(=S)c(-c3cc4ccccc4o3)c(C)oc2c1	84
O=C(Nc1ccc(Cl)cc1)/C(=C\c1cccs1)c1ccsc1	97
CN1CCN(c2oc(-c3ccccc3F)nc2C#N)CC1	100
NS(=O)(=O)c1ccc(NC(=O)CCCC(=O)O)cc1	100
c1ccn2c(SCc3ccc4c(c3)OCCO4)nnc2c1	113
CC(C)c1nc2ccccc2n1Cc1ccccc1Cl	87
CC1(C)CC(=O)c2sc(NC(=O)c3ccc(F)cc3)nc2C1	96
OC(CNCc1cc2ccccc2s1)C(F)(F)F (stereo not drawn)	104
Cn1c(O)c(C=Nc2ccccc2)oc1=S	100

A portion of the library, so the mix of outcomes need not match the whole.
